quorum sensing: Vibrio cholerae quorum sensing activators, luminescence (AID 686977) | V. cholerae quorum sensing reporter, luminescence, 6 h; higher luminescence means a stronger effect; most inactives read 0 | one-dose luminescence at 50 µM unless noted; EC50 in µM for titrated hits | 9,400 tested, under 10 active;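 active = light above mean plus 3 SD and confirmed in a dose series; inconclusive = above that limit without a clear retest; inactive = below it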;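 note: raw light counts without normalisation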
The depositor's hits bear a star; ? = inconclusive; [ ] = remark or other dose. The list is partial. The share of hits here may be higher or lower than overall.

SMILES | quorum sensing
CCCCn1nnc(NC(=O)COc2ccc(Cl)c(C)c2)n1 | ?
CC1(C)CC(=O)C(C=NCc2ccc3c(c2)OCO3)=C(O)C1 | 0
CCOC(=O)NC(=O)CSc1nc(C)cc(C(F)(F)F)c1C#N | 0
COc1cccc(-c2csc3nnc(SCC(=O)NCc4cccs4)n23)c1 | 0
CCCCOc1ccc(C2OC34CCCCC3C(C#N)(C#N)C2(C#N)C(=N)O4)cc1 (stereo not drawn) | 0
COc1cc(NC(=O)c2cc3ccccc3o2)c(OC)cc1Br | 0
CCOc1ccc(N(CC(=O)NCc2cccs2)S(=O)(=O)c2c(C)noc2C)cc1 | 40
NC(=O)c1c(C(F)(F)F)cc(-c2ccccc2)nc1NCCO | 0
COCCN1Cc2cccc(C(=O)NCc3cccnc3)c2C1=O | ?
Cn1c(=O)cc(OCC(=O)N2CCC(N3CCCCC3)CC2)c2ccccc21 | 40
CCOc1ccccc1C1CC(c2ccc(Cl)cc2)Nc2nc(N)nn21 (stereo not drawn) | 0
CC(C)(C)c1nc(CN2CCOCC2)ccc1O | 0
CCOC(=O)N1CCN(C(=O)c2cnn3ccccc23)CC1 | 0
COC(=O)Cn1c(=NC(=O)C(C)(C)C)sc2c(C)cc(C)cc21 | 0
COc1cccc(C(=O)Nc2c(C(N)=O)oc3ccccc23)c1 | 0
O=C(NC1CCCC1)C(c1ccc(Cl)cc1)N1CCOCC1 (stereo not drawn) | 0
COc1cccc(Nc2ncnc3ccccc23)c1 | 40
C=C[C@H]1CN2CC[C@H]1C[C@H]2[C@H](O)c1ccnc2ccccc12 | 40[10 µg/mL]
COCCCNC(=O)CSc1ccc(Cl)cc1 | 0
CCS(=O)(=O)NCC(c1cccnc1)N1CCN(c2ccccc2OC)CC1 (stereo not drawn) | 40
CCCCNc1cc(C(=O)O)cc(S(N)(=O)=O)c1Oc1ccccc1 | 0[10 µg/mL]
C=C(C)[C@@H]1CC[C@]2(CO)CC[C@]3(C)[C@H](CC[C@@H]4[C@@]5(C)CC[C@H](O)C(C)(C)[C@@H]5CC[C@]43C)[C@@H]12 | 280[10 µg/mL]
CCCc1[nH]nc2c1C(C1CCCCC1)C(C#N)=C(N)O2 (stereo not drawn) | 0
O=c1ccc2cc(OC3O[C@H](CO)[C@@H](O)[C@H](O)[C@H]3O)c(O)cc2o1 (stereo partly drawn) | 0[10 µg/mL]
O=c1c2ccccc2nc(CSc2nnnn2-c2ccccc2)n1-c1cccc(C(F)(F)F)c1 | 0
CCOC(=O)C1=C(C)N=C2SC(CC)C(=O)N2C1c1cccc(F)c1 (stereo not drawn) | 0
Cc1nccc2c1[nH]c1ccccc12 | ?
Cc1ccc(S(=O)(=O)NCc2nnc(SCC(=O)Nc3cccc(C)c3C)n2C)cc1 | 0
O=C(Cn1c(C(=O)N2CCN(C3CCCCC3)CC2)cc2sccc21)c1ccccc1 | 40
NC(=O)c1cc(N)ccc1N1CCCC1 | 0
COC(=O)c1sc2ccccc2c1N | 0
COc1ccc(N2C(=O)C3CCCN3C2c2cccc(OC)c2)cc1 (stereo not drawn) | 40
NC(=O)CN1CCCC1=O | 40[10 µg/mL]
CC1(C)CC(=O)C(C(=O)/C=C/NCCc2ccccc2)C(=O)C1 | ?
CCCCOCC(O)CN1CCN(C(C)=O)CC1 (stereo not drawn) | 40
COc1ccccc1-c1nc(-c2ccc(Br)o2)no1 | 0
COc1ccc(OC)c(C2=C[N+](=O)C(C)(C)C(C)(C)N2[O-])c1 | 40
Cc1ccc(C(CC(=O)O)Nc2nc(N3CCCCC3)nc(N3CCCCC3)n2)cc1 (stereo not drawn) | 40
O=C(O)c1cccnc1SC1CC(=O)N(c2cccc(C(F)(F)F)c2)C1=O (stereo not drawn) | 0
CC12Cc3ccc4ccccc4c3C=C1C[N+](C)(C)C2 (stereo not drawn) | 0
O=C1NC(c2ccccn2)Nc2sc3c(c21)CCC3 (stereo not drawn) | 0
Oc1c(C=NCc2ccc(F)cc2)[nH]c2ccc(Br)c(Cl)c12 | 40
NC(=O)CN1CCN(C(=O)NC2CCCCC2)CC1 | ?
Cc1ccc(OCc2nc(-c3ccc(Cl)cc3)n[nH]2)cc1 | 40
CCN(CC)C(=O)N1CCN(C)CC1 | 0[10 µg/mL]
COc1ccc(N2CCN(c3ncnc4nc[nH]c34)CC2)cc1 | 0
c1cc2c3c(cccc3c1)NC1(CCCCC1)N2 | 40
CN(NS(=O)(=O)c1ccccc1)c1nc2ccccc2nc1C(F)(F)F | 80
CCOC(=O)c1ccccc1NC(=O)c1cccc2c1C(=O)N(C1CCN(C(=O)OCC)CC1)C2 | 0
CCNC(=O)NC(=O)COc1ccccc1C#N | 40
Other entries.
SMILES | quorum sensing
CCOC(=O)c1c(C)[nH]c(C(=O)COC(=O)c2cnc(C)cn2)c1C | 0
CCOC(=O)N1CCC(NC(=O)Cn2c3c(c(-c4ccccc4Cl)cc2=O)CCC3)CC1 | 0
CCCCN(C(=O)NC(=O)C1=C(N2CCOCC2)/C(=C/c2ccccc2)CC1)S(C)(=O)=O | 0
Cc1cn([C@H]2C[C@@H](N=[N+]=[N-])[C@@H](CO)O2)c(=O)[nH]c1=O | 40[10 µg/mL]
CN1CCN(c2cc(=O)n(-c3ccc(Cl)cc3)c(=O)[nH]2)CC1 | 40
CCOC(=O)Cc1csc(NC(=O)COc2ccc(OC)cc2)n1 | 40
CC(C)COC(=O)Nc1ccc(C(=O)O)cc1 | 0
CSc1nnnn1CCn1nnnc1SC | 40
O=C(Nc1cccc(Cl)c1)C1CCCN(S(=O)(=O)c2cnc[nH]2)C1 (stereo not drawn) | 0
CCOC(=O)C1CCN(c2cc(=O)n(-c3ccc(OC)cc3)c(=O)[nH]2)CC1 | 0
O=C(CSc1nc(-c2ccco2)cc(C(F)(F)F)n1)Nc1ccc(C(=O)N2CCCCC2)cc1 | 40
O=C(Nc1cccc(C(F)(F)F)c1)c1cccnc1N1CCCC1 | 0
COc1cccc(-c2nnc(NC(=O)C3CCCCC3)o2)c1 | 0
Nc1ncnc2c1ncn2C1CCC(CO)C(O)C1 (stereo not drawn) | 0
CCn1c(CNC(=O)c2ccc(OC)cc2)nnc1SC | 0
CCn1c(SCC(=O)Nc2ccc(OC)c(OC)c2)nnc1-c1c[nH]c2ccccc12 | 0
CCN1C[C@]2(COC)CC[C@H](O)[C@]34C1[C@H](C[C@H]23)[C@@]1(O)C[C@H](OC)[C@H]2C[C@@H]4[C@@H]1[C@H]2OC(C)=O | 40[10 µg/mL]
CC(C)(C)NC(=O)CSc1nnnn1C(C)(C)C | 0
CCC1=NC(c2ccc(OC)cc2)N(O)C1(C)C (stereo not drawn) | 40
CCC(=O)Nc1nc(=S)ss1 | 0
COc1ccc(Br)cc1C1CC(=O)N2CN(Cc3ccccc3)CSC2=C1C#N (stereo not drawn) | 80
CN(C)CCOC(=O)COc1ccc(Cl)cc1 | 0[10 µg/mL]
COCCOCCn1cnc2ccccc21 | 0
CC(=O)OCCNC(=O)c1cccnc1 | 40
Cc1ccc(C)c(N2CCN(C(=O)C(Cc3ccccc3)n3cccc3)CC2)c1 (stereo not drawn) | 0
COc1ccc(OCCSc2nnc(CCNC(=O)c3ccc(Cl)c(Cl)c3)n2C)cc1 | 0
COC(=O)c1sccc1NC(=S)N1CCCCC1 | 160
CN=C(NC#N)NCCSCc1nc[nH]c1C | 0[10 µg/mL]
COc1ccc(-c2noc(-c3cc(C)cc(C)c3)n2)cc1OC | 0
O=C(NCCN1CCN(c2cccc(Cl)c2)CC1)C1CCCN(S(=O)(=O)c2cnc[nH]2)C1 (stereo not drawn) | 0

Arranged by molecular weight (rising): 3 of the compounds above
SMILES | quorum sensing
CN=C(NC#N)NCCSCc1nc[nH]c1C | 0[10 µg/mL]
COC(=O)c1sccc1NC(=S)N1CCCCC1 | 160
COc1ccc(OCCSc2nnc(CCNC(=O)c3ccc(Cl)c(Cl)c3)n2C)cc1 | 0

Next part:
SMILES | quorum sensing
O=C(N/N=C/C=C/c1ccccc1)c1ccc(Br)cc1 | 0
CC1CN(S(=O)(=O)c2ccc(-c3nc4ccccc4s3)cc2)CC(C)O1 (stereo not drawn) | 0
CCCC(=O)Nc1nc2c(c(=O)[nH]1)CCCC2 | 0
Cc1ccc2oc(=O)c3cnn(CC(=O)NCCCOC(C)C)c3c2c1 | 0
O=C1C=C(c2ccccc2)C(O)(c2ccccc2)C1 (stereo not drawn) | 40
CO/N=C(\C(=O)N[C@@H]1C(=O)N2C(C(=O)O)=C(COC(N)=O)CS[C@H]12)c1ccco1 | 200[10 µg/mL]
O=c1cc(N2CCc3ccccc3C2)[nH]c(=O)n1-c1ccccc1Cl | 40
Cc1ccc2nc(NC(=O)c3ccc4ncsc4c3)sc2c1 | 0
O=c1[nH]c(=O)n(Cc2ccccc2)c(O)c1C=Nc1ccc(CN2CCOCC2)cc1 | 160
CCCN(CCC)c1nc2ccccc2nc1C(C#N)C(=O)OC(C)COC (stereo not drawn) | 0
CC1(C)CC(=O)c2cc(OCC(=O)N3CCOCC3)ccc2O1 | 40
CC(C)(C)CC(C)(C)c1ccc(OCCOCC[N+](C)(C)Cc2ccccc2)cc1 | 0[10 µg/mL]
CC(=O)N1CCc2cc(C(=O)CN3CCCCC3)ccc21 | 0
Cn1c(NC(=O)c2ccccc2F)cc(=O)n(C)c1=O | 0
CC1CCCCN1CC(=O)c1ccc2cc[nH]c2c1 (stereo not drawn) | 200
CCn1c(CNC(=O)C23CC4CC(CC(C4)C2)C3)nnc1SCC(=O)Nc1nnc(C)s1 | 40
CCn1cnc2c1c(=O)n(CC(=O)Nc1ccc3c(c1)OC(F)(F)O3)c(=O)n2Cc1ccccc1 | 40
CCCCCSc1nnc2c(n1)OC(C)N(C(C)=O)c1ccccc1-2 (stereo not drawn) | 0
CC(Oc1ccc(Cl)cc1Cl)C(=O)NCCCN1CCOCC1 (stereo not drawn) | 40
O=C1CC(c2ccco2)CC(O)=C1C=Nc1ccc(Br)cc1 (stereo not drawn) | 0
CC(=O)c1cccc(NC(=O)N2CCCC2C(=O)Nc2cccc(C)c2C)c1 (stereo not drawn) | 0
CC(C)C(=O)Nc1ncc(C(F)(F)F)cc1Cl | 40
CC1CCN(c2c(NCc3ccc(C(=O)NCc4cccnc4)cc3)c(=O)c2=O)CC1 | 0
Cc1cc(NC(=O)c2cc(-c3cccs3)nc3ccccc23)no1 | 280
N#Cc1c(NC(=O)CN2CCN(S(=O)(=O)c3ccc4c(c3)OCCO4)CC2)sc2c1CCC2 | 0
CN(C)CC(C)(C)CNS(=O)(=O)CC12CCC(CC1=O)C2(C)C (stereo not drawn) | 0
NC[C@H]1O[C@H](O[C@H]2[C@H](O)[C@@H](O[C@H]3O[C@H](CO)[C@@H](O)[C@H](N)[C@H]3O)[C@H](N)C[C@@H]2N)[C@H](N)C[C@@H]1O | 0[10 µg/mL]
Cc1[nH]c2c(ccc3ccccc32)c1C1C(CCN)C1(C)C (stereo not drawn) | 0
CCCCCCN1CC(O)=C(c2ccccc2)C1=N | 0
COC(=O)C(N)Cc1ccc(O)c(O)c1 (stereo not drawn) | 40
COc1cc2c(C(=O)NCc3ccccn3)cn(CC(C)C)c(=O)c2cc1OC | 80
O=C(COC(=O)c1n[nH]c2ccccc12)NC(=O)NCc1ccco1 | 240
CCSc1nc2c(cnn2-c2ccc(C)cc2)c(=O)[nH]1 | 0
COc1ccc(NC(=O)CN2C(=O)CC(C)(C)S(=O)(=O)c3ccccc32)cc1 | 0
C=CCn1c(C(C)NC(=O)CC)nc2ccccc21 (stereo not drawn) | 40
O=C(Cn1cnc2c(cnn2-c2ccccc2)c1=O)NC1CCCC1 | 0
Cc1oc(-c2cccs2)nc1CS(=O)CC(=O)NCCCN1CC(C)CC(C)C1 (stereo not drawn) | 40
Nc1c(C(=O)NC2CCCC2)c2nc3ccccc3nc2n1CC1CCCO1 (stereo not drawn) | 40
C#CC1(O)CC[C@H]2[C@@H]3CCC4=CCCC[C@@H]4[C@H]3CC[C@@]21C (stereo partly drawn) | 40[10 µg/mL]
COc1ccc(NC(=O)C2CC(=O)OC23CCOC(C)(C)C3)cc1 (stereo not drawn) | 0
O=C1c2ccccc2C(=O)N1CCN1CCOCC1 | 40
CCn1c(SCc2cccnc2)nnc1-c1c[nH]c2ccccc12 | 400
Cn1nnnc1SCC(=O)Nc1ccccc1C(=O)NC1CC1 | 0
COc1ccc(Cc2noc(-c3ccc(C)cc3)n2)cc1 | 0
O=C(CCSc1nnc2scc(-c3ccccc3)n12)Nc1nc(-c2ccccc2)ns1 | 0
COc1ccc(OC)c(C2CC(=O)c3c([nH]c(C(=O)OCC4CCCO4)c3C)C2)c1 (stereo not drawn) | 0
CC1(C)CC(=O)N(CC(=O)NCc2ccc(F)cc2)c2ccccc2S1(=O)=O | 0

Of the compounds above, these contain an aryl thioether with sulfur outside any ring.
SMILES | quorum sensing
CCOC(=O)NC(=O)CSc1nc(C)cc(C(F)(F)F)c1C#N | 0
COc1cccc(-c2csc3nnc(SCC(=O)NCc4cccs4)n23)c1 | 0
COCCCNC(=O)CSc1ccc(Cl)cc1 | 0
O=c1c2ccccc2nc(CSc2nnnn2-c2ccccc2)n1-c1cccc(C(F)(F)F)c1 | 0
Cc1ccc(S(=O)(=O)NCc2nnc(SCC(=O)Nc3cccc(C)c3C)n2C)cc1 | 0
O=C(O)c1cccnc1SC1CC(=O)N(c2cccc(C(F)(F)F)c2)C1=O (stereo not drawn) | 0
CSc1nnnn1CCn1nnnc1SC | 40
O=C(CSc1nc(-c2ccco2)cc(C(F)(F)F)n1)Nc1ccc(C(=O)N2CCCCC2)cc1 | 40
CCn1c(CNC(=O)c2ccc(OC)cc2)nnc1SC | 0
CCn1c(SCC(=O)Nc2ccc(OC)c(OC)c2)nnc1-c1c[nH]c2ccccc12 | 0
CC(C)(C)NC(=O)CSc1nnnn1C(C)(C)C | 0
COc1ccc(OCCSc2nnc(CCNC(=O)c3ccc(Cl)c(Cl)c3)n2C)cc1 | 0
CCn1c(CNC(=O)C23CC4CC(CC(C4)C2)C3)nnc1SCC(=O)Nc1nnc(C)s1 | 40
CCCCCSc1nnc2c(n1)OC(C)N(C(C)=O)c1ccccc1-2 (stereo not drawn) | 0
CCSc1nc2c(cnn2-c2ccc(C)cc2)c(=O)[nH]1 | 0
CCn1c(SCc2cccnc2)nnc1-c1c[nH]c2ccccc12 | 400
Cn1nnnc1SCC(=O)Nc1ccccc1C(=O)NC1CC1 | 0
O=C(CCSc1nnc2scc(-c3ccccc3)n12)Nc1nc(-c2ccccc2)ns1 | 0

Source: PubChem BioAssay
